Bst PK mod – Pyruvate Kinase. 51,000 compounds, 1.2% hits. partly purified Bacillus stearothermophilus pyruvate kinase, luminescence ATP production; ribose 5-phosphate activator present at AC10. Potency, µM; in the data active means potency below about 11 µM; inconclusive means mostly about 12 µM to 25 µM; inactive means weaker than that;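 the screen sought inhibitors and activators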;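 also: potency is read from the fitted curve at half-maximal effect; scaled between full activation by ribose 5 phosphate and full inhibition by luteolin; about four in five hits inhibit and the cells do not say which; series up to 57 µM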
TsaE inh – qHTS Assay for Inhibitors of YjeE. Potency, µM. 71,000 compounds, 0.05% hits. AID 605, 2007. purified YjeE, fluorescence polarisation of a bound ADP probe; active = well fitted falling curve; inconclusive = weaker or top-dose-only fall, or a rising curve; inactive = flat or poorly fitted curve;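 also: top concentration of the series not given in the record; excess ADP was the control for the full effect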
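Fluorescence polarization of a BODIPY Texas Red–ADP probe (2 uM) bound to purified YjeE (10 uM) was read after 15 min room-temperature incubation with compounds. Loss of polarization marks inhibitors; ADP serves as titrated control.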
Starred values were filed as active, the others as inactive; i = inactive; ? = inconclusive; nt = not tested or not shown.

Order of values: Bst PK mod, TsaE inh
1: CC1(C)CC(=O)c2cc(C(=O)NC3CCSC3=O)c(=O)n(-c3ccccc3)c2C1 (stereo not given)
  >57, i
2: COc1ccc(-n2c(N)c(C(=O)NCC3CCCO3)sc2=S)cc1 (stereo not given)
  >57, i
3: C/C(Cl)=C\Cn1c(NCCc2ccccc2)nc2c1c(=O)n(C)c(=O)n2C
  >57, i
4: O=C1CCCC(O)=C1C=Nc1ccc2c(c1)oc1ccccc12
  >11, i
5: NCCCNC(=O)c1cc2ccccc2[nH]1
  >57, i
6: CC(=O)c1c(N2CCN(Cc3ccc4c(c3)OCO4)CC2)nc(=S)n(-c2ccccc2)c1C
  >57, i
7: O=C1CCCC2=C1C(c1cccs1)n1ncnc1N2 (stereo not given)
  >57, i
8: Cc1ccc(C)c(CN2CCCNC2=O)c1
  >57, i
9: CCCCCCN(C(=O)CCCCCN1C(=O)NC(c2ccc(C(F)(F)F)cc2)C(C(=O)OCc2ccccc2)=C1C)C(C(=O)NCCCC)c1ccc(OCC(=O)OC)c(C(=O)OC)c1 (stereo not given)
  nt, i
10: O=C(CCN1C(=O)c2ccccc2S1(=O)=O)Nc1nc2c(s1)CCCC2
  >57, i
11: COc1ccc(NC(=O)CC2C(=O)N(c3cccc(OC)c3)C(=O)N2C2CCCCC2)cc1 (stereo not given)
  >57, i
12: COC(=O)c1ccc(C(NC(=O)OCc2ccccc2)/C(F)=C/[C@@H](C)C(=O)Nc2ccc(OC)cc2)cc1 (stereo not given in full)
  nt, i
13: CCOC(=O)N1CCC(NCCNC(=O)c2ccccc2Cl)CC1
  >57, i
14: CCN(CC)C(=O)C1CCN(c2ncnc3c2cnn3-c2ccc(C)cc2C)CC1
  >26, nt
15: COC(=O)[C@@H](NC(=O)NC1CCN(Cc2ccccc2)CC1)C(C)C
  >57, i
16: C=CCn1c(SCc2nnc(-c3ccccc3)o2)nnc1C(O)c1ccccc1 (stereo not given)
  >57, i
17: FC(F)C(F)(F)C(F)(F)C(F)(F)c1cc(-c2ccccc2)n[nH]1
  nt, i
18: c1cncc(-c2nnc(SCc3cccc4ccccc34)o2)c1
  nt, i
19: Cc1nn2c(N3CCOCC3)c3c(nc2c1-c1ccccc1)CCCC3
  >57, i
20: COc1ccc(OC)c(-n2c(CN3CCC(C(N)=O)CC3)nc3ccccc3c2=O)c1
  ?, i
21: Clc1ccc(Cn2cc(Br)cn2)cc1Cl
  i, i
22: CN1CCN(C(=O)CSc2nc(-c3cccs3)cc(-c3cccs3)c2C#N)CC1
  i, i
23: O=C1CC2(CCCC2)CC(=O)N1CCCCNC[C@H]1COc2ccccc2O1
  nt, i
24: COc1ccc(CN(CC(=O)NCC2CCCO2)C(=O)CCC(=O)Nc2cc(C)ccn2)cc1 (stereo not given)
  >57, i
25: COc1ccc(Cl)cc1N=Cc1c(O)cc(C)oc1=O
  >11, nt
26: CCCC(=O)Nc1ccccc1NC(=O)CN(C)S(=O)(=O)c1ccccc1
  >57, i
27: CCN1CCCC1CNC(=O)c1ccc(CS(=O)(=O)c2ccccc2C)o1 (stereo not given)
  >57, i
28: O=c1c(-c2ccc(Br)cc2)coc2c(CN3CCOCC3)c(O)ccc12
  >57, i
29: CCOC(=O)c1c(NC(=O)CSc2nnc(-c3ccccc3)n2CC)sc(C(C)=O)c1C
  >57, i
30: Cc1cccc(-n2c(SCC(=O)Nc3nnc(C)s3)nnc2-c2ccoc2C)c1
  >57, i
31: COCCOC(=O)c1c(C)oc2ccc(OC(=O)c3ccc4c(c3)OCO4)cc12
  >57, i
32: Cc1ccc(SCCNC(=O)C(C)C)cc1
  >57, i
33: COC(=O)c1ccc(CSc2nc3sc4c(c3c(=O)n2C)CCCC4)o1
  >57, i
34: COc1cc(C2/C(=C(\O)c3cc(C)ccc3C)C(=O)C(=O)N2CCN(C)C)ccc1O (stereo not given)
  >57, i
35: O=C(Nc1ccc(F)cc1)N(CCCN1CCOCC1)Cc1cc2cc3c(cc2[nH]c1=O)OCO3
  ?, i
36: CC(=O)c1cc2c(cc1NC(=O)c1ccc(-n3nc(C)cc3C)cc1)OCO2
  >57, i
37: CN(C(=O)c1cnc(N2CCN(c3ncccn3)CC2)c2ccccc12)c1ccc(Cl)cc1
  >57, i
38: COc1ccc(OCC(=O)N2CCN(c3nnc(-c4ccccc4)c4ccccc34)CC2)cc1
  >57, i
39: COc1ccc(S(=O)(=O)N(CC(=O)N2CCN(C)CC2)C2CCCCC2)cc1OC
  >57, i
40: Cc1ccc(C)c(OCCCCCn2ccnc2)c1
  nt, i
41: N#CCSc1nnc(Cc2cccc3ccccc23)n1C1CCCCC1
  >57, i
42: CCC(Sc1nc(=O)cc(N)n1-c1ccccc1)C(=O)Nc1ccc(Cl)cn1 (stereo not given)
  >57, i
43: Cc1cc(C)c2[nH]c(=O)c(CN(CC3CCCO3)C(=O)C3CCCO3)cc2c1 (stereo not given)
  >57, i
44: Cc1cc2c3nonc3ccc2n1C
  >57, i
45: COc1ccc(-c2nnc3ccc(SCC(=O)NCc4ccco4)nn23)cc1OC
  >57, i
46: O=C(NCCCN1CCN(CCCNC(=O)c2ccc(F)cc2)CC1)c1ccc(F)cc1
  >57, i
47: CCOc1cccc2cc(C(=O)Nc3cc(C)on3)c(=O)oc12
  >57, i
48: Cc1ccc(NC(=O)c2ccc(S(=O)(=O)NCC3CCCO3)cc2)cc1 (stereo not given)
  >57, i
49: O=C(NCc1ccco1)c1cc2sccc2n1Cc1ccccc1
  >57, i
50: COc1ncc2nc(-c3ccccc3)c(=O)n(C3CC3)c2n1
  nt, i
51: CCOc1ccc(-c2cc(CCCC(=O)NCc3cccnc3)no2)cc1
  nt, i
52: COc1cccc(Nc2cc(C)nc3nc(C)nn23)c1
  nt, i
53: Cc1nc(SCC(=O)Nc2ccc3c(c2)OCO3)c(C#N)c2c1CCCC2
  >26, nt
54: Cn1c(=O)c2c(nc(NCc3ccco3)n2C/C=C/c2ccccc2)n(C)c1=O
  >57, i
55: CC(=O)NCC12CC3CC(C1)CC(C(=O)O)(C3)C2
  >57, i
56: CSc1nnc([C@@H](NC(=O)OC(C)(C)C)C(C)C)o1
  >57, i
57: CCNc1ncc2nc(C)c(=O)n(C[C@H]3CCCO3)c2n1
  nt, i
58: O=S(=O)(c1cc(Cl)ccc1Cl)n1nnc2ccccc21
  nt, i
59: COC(=O)c1ccc(S(=O)(=O)N2CCCC2)o1
  >57, i
60: CCOc1ccc(-c2[nH]ncc2Oc2cccc(OC)c2)c(O)c1
  >57, i

Next structures follow.
no.	SMILES	Bst PK mod	TsaE inh
61	O=C(NCc1cn2ccsc2n1)Nc1ccc(Cl)cc1	>57	i
62	O=C(OCc1nnc(-c2ccccc2)o1)c1ccc2c(c1)OCCO2	>57	i
63	Cc1ccc(C)n1-c1cc(S(=O)(=O)N2CCOCC2)ccc1N1CCCC1	>57	i
64	Cc1cc(=O)oc(C)c1C(=O)N1CCc2c([nH]c3ccccc23)C1C(C)C (stereo not given)	nt	i
65	O=C(Cn1cc2c(n1)CCCC2)N1CCCC1	nt	i
66	Cc1cc(C)n(Cc2ccc(C(=O)NCCC3=CCCCC3)o2)n1	>26	nt
67	COc1ccccc1-c1nc(-c2ccc(Br)cc2)no1	nt	i
68	O=S(=O)(Nc1ccc2c(c1)nc1n2CCOC1)c1ccccc1	>57	i
69	O[C@@H](c1ccccc1)C1CCN(CCc2ccccc2)CC1	nt	i
70	O=C(CSc1nnnn1-c1ccccc1)Nc1nsc(-c2ccccc2)n1	>57	i
71	O=C(Cn1c(=O)oc2cc(S(=O)(=O)N3CCCC3)ccc21)Nc1ccc(C(F)(F)F)cc1	>57	i
72	O=S(=O)(/C=C/c1ccccc1)N1CCN(c2ccccc2)CC1	nt	i

Copied from above: compounds 11 to 12
no.	SMILES	Bst PK mod	TsaE inh
11	COc1ccc(NC(=O)CC2C(=O)N(c3cccc(OC)c3)C(=O)N2C2CCCCC2)cc1 (stereo not given)	>57	i
12	COC(=O)c1ccc(C(NC(=O)OCc2ccccc2)/C(F)=C/[C@@H](C)C(=O)Nc2ccc(OC)cc2)cc1 (stereo not given in full)	nt	i

The listing continues:
no.	SMILES	Bst PK mod	TsaE inh
73	Cc1noc(C)c1-c1ccc2ncnc(N(C)C)c2c1	nt	i
74	CCC(Sc1nc2sc(C(=O)OC)c(C)c2c(=O)n1N)C(=O)NCC1CCCO1 (stereo not given)	>57	i
75	CCOC(=O)N1CCN(C(=O)CSc2nc3c(cnn3-c3ccc(Cl)cc3)c(=O)[nH]2)CC1	nt	i
76	O=C(CSc1ncn[nH]1)Nc1ccc(Br)cc1F	>57	i
77	CCOC(=O)c1csc(NC(=O)c2ccc(S(=O)(=O)N3CCCC3)cc2)n1	>57	i
78	COC(=O)[C@@]1(Cc2ccc(OC)cc2)[C@H]2c3cc(C(=O)N4CCCC4)n(Cc4ccccn4)c3C[C@H]2CN1C(=O)c1ccccc1	nt	i
79	Cc1ccc(-n2nnc3c(=O)n(Cc4ccccc4C)cnc32)cc1	nt	i
80	Cc1ccc(-n2c3c(cc(C(=O)NCCCN4CCOCC4)c2=O)C(=O)CC(C)(C)C3)cc1	nt	i
81	CCOC(=O)CSc1nc2c(cnn2-c2ccc(C)cc2)c(=O)[nH]1	>57	i
82	CCOC(=O)C(NC(=O)C1CCCN1C(=O)OCc1ccccc1)C(=O)OCC (stereo not given)	>57	i
83	C=CCSc1nnc(-c2cc(Br)ccc2N)c(=O)[nH]1	nt	i
84	CCCn1c(=O)c2c(nc(Br)n2CCC)n(C)c1=O	>57	i
85	Cn1c(SCC(=O)N2c3ccccc3Sc3ccccc32)nnc1-c1ccco1	>57	i
86	CC(C)NC(=O)NC(=O)CSc1ncc(C(F)(F)F)cc1Cl	>57	i
87	CC1CC(C)CN(S(=O)(=O)c2ccc(NC(=O)C3COc4ccccc4O3)cc2)C1 (stereo not given)	nt	i
88	COc1ccc(C2C3=C(OC(C)=O)c4ccccc4C3=Nc3c2c(=O)n(C)c(=O)n3C)cc1 (stereo not given)	>57	i
89	COc1ccc(C(C)NC(=O)C2C(=O)NC3(C)CC2c2ccccc2O3)cc1 (stereo not given)	>57	i
90	Cc1c(C2CCN(CCc3ccccc3)CC2)noc1-c1ccc(Cl)cc1	nt	i
91	O=C(O)c1ccc(S(=O)(=O)N(Cl)Cl)cc1	nt	i
92	Cc1cc(C)n(CCOc2nonc2N)n1	>57	i
93	CC1(C)Cc2c(sc3nc(NCCN4CCOCC4)n4ncnc4c23)CO1	>57	i
94	O=C(O)CCN1C(=O)CC2(CCCCC2)C1=O	>57	i
95	COCc1cc(C)nc(N2CCN(c3ccccc3)CC2)c1C#N	nt	i
96	Cc1[nH]c(=O)[nH]c(=O)c1NC(=O)c1cccs1	>57	i
97	Cc1cccc(N(CC(O)CN(C)C)S(=O)(=O)c2ccccc2)c1 (stereo not given)	>26	nt
98	Cc1nc(SCC(=O)c2ccccc2)c(C#N)c(-c2ccco2)c1C(=O)NCc1ccco1	i	nt
99	Cc1cc2n(n1)C(c1ccc3c(c1)OCO3)Nc1ccccc1-2 (stereo not given)	nt	i
100	CCOc1ccc2[nH]c(=O)c(CN(CC3CCCN3CC)C(=O)NCc3ccccc3)cc2c1 (stereo not given)	>57	i
101	COCCNC(=O)c1ccc2c(=O)n(CCOC)c(=O)[nH]c2c1	>57	i
102	Cc1ccc2nc(N3CCN(Cc4nnnn4Cc4ccccc4)CC3)c(C#N)cc2c1	>57	i
103	Cc1nnc(SCC(=O)Nc2nccs2)[nH]c1=O	>57	i
104	CCc1cc2c(NCC(=O)O)ncnc2s1	>57	i
105	COC(=O)c1cccc(S(=O)(=O)N(Cc2ccco2)Cc2cc3ccc(OC)cc3[nH]c2=O)c1	>57	i
106	CC(=O)C1C(c2ccc(Cl)cc2)NC(=O)NC1(O)C(F)(F)F (stereo not given)	nt	i
107	CCCNC(=O)C1CCN(S(=O)(=O)c2ccc3nc4c(c(C(=O)O)c3c2)CCCCC4)CC1	nt	i
108	Cc1cc(C)cc(N(CC(=O)N2CCc3ccccc32)S(=O)(=O)c2c(C)noc2C)c1	nt	i
109	CCOC(=O)N1CCN(C(=O)c2ccccc2NC(=O)COc2ccccc2C)CC1	nt	i
110	CCOc1ccccc1C(=O)N(CN1CCCC1=O)c1ccc(C)c(Cl)c1	>57	i
111	Cc1nn(C)c(C)c1NC(=O)CSc1nnc(C)n1-c1ccccc1	>57	i
112	Cc1cc2cc(CCNS(C)(=O)=O)c(=O)[nH]c2cc1C	>57	i
113	COc1ccccc1/C=C/CN1CC(C)OC(C)C1 (stereo not given)	>57	i
114	CP(=O)(COC(=O)c1ccccc1)COC(=O)c1ccccc1	nt	i
115	Cc1cc(N/C=C2\CCCCC2=O)no1	>57	i
116	COc1ccc(C)cc1N(CC(=O)O)S(=O)(=O)c1ccc(C)cc1	nt	i
117	CN(C)c1ccc(C(CC(=O)O)NC(=O)c2ccc(Cl)cc2)cc1 (stereo not given)	i	i
118	CCSc1nc2c(c(=O)[nH]c(=O)n2C)n1C	>57	i
119	COc1ccc(-c2cc(C(F)(F)F)nc(S(C)(=O)=O)n2)cc1OC	>57	i

Some of the entries so far, with one line to a screen.
#111 Cc1nn(C)c(C)c1NC(=O)CSc1nnc(C)n1-c1ccccc1
#119 COc1ccc(-c2cc(C(F)(F)F)nc(S(C)(=O)=O)n2)cc1OC
#118 CCSc1nc2c(c(=O)[nH]c(=O)n2C)n1C
#117 CN(C)c1ccc(C(CC(=O)O)NC(=O)c2ccc(Cl)cc2)cc1 (stereo not given)
#115 Cc1cc(N/C=C2\CCCCC2=O)no1

assay / compound	111	119	118	117	115
Bst PK mod	>57	>57	>57	i	>57
TsaE inh	i	i	i	i	i

High-throughput results (PubChem)

A portion of the library, so the mix of outcomes need not match the whole.
